Vif A3G: inhibitors of Vif binding to APOBEC3G peptide, primary screen, biochemical, TR-FRET, GST-Vif 1-94, biotin-A3G peptide, dose response retest (AID 1117319); inhibition, %; hits with a dose series show IC50 in µM; TR-FRET GST-Vif / biotin-A3G peptide binding; higher % means a stronger effect; test concentration not given here; strong numbers were not always called active; 260,000 compounds, 0.57% hits;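 active = above the screen mean plus three standard deviations and confirmed in dose response; inconclusive = results disagree or hit not tested in dose response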;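 note: Vif residues 1-94 fused to GST binding biotinylated APOBEC3G peptide 110-148; 0% = full assay without inhibitor and 100% = GST in place of GST-Vif; retest series ran down from 100 µM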
RanGTP-Impb inh: inhibitors of RanGTP-importin-beta interaction, primary screen, biochemical, FRET, CFP-Ran, YFP-importin-beta, homogeneous | 300,000 compounds, 1.1% hits | AID 2216 | cell-free CFP-Ran/YFP-importin-beta FRET ratio | inhibition, % (test concentration not listed);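 active = most replicates above 15%; inconclusive = exactly half above 15%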;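 note: 0% = DMSO wells and 100% = Ran loaded with GDP instead of GTP; wells of about 40 µL received 100 nL stock; the first replicate is given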
AF4-AF9 inh: inhibitors of human MLL-AF4/AF9 interaction; P42568; AlphaScreen, biotin-AF4 peptide binding to FLAG-AF9; inhibition, % at 10 µM; 350,000 compounds, 0.47% hits; AID 651704;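 active = every replicate reaching a set inhibition limit, whatever the replicate mean, cut at about 25% in these data; inconclusive = mean inhibition reaches that limit but some replicates miss it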;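 note: 0% = plate neutral control median and 100% = total signal loss; the record names both 10 and 1 µM as test concentration; the first replicate is given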
Target sequence (P42568 whole entry, looked up): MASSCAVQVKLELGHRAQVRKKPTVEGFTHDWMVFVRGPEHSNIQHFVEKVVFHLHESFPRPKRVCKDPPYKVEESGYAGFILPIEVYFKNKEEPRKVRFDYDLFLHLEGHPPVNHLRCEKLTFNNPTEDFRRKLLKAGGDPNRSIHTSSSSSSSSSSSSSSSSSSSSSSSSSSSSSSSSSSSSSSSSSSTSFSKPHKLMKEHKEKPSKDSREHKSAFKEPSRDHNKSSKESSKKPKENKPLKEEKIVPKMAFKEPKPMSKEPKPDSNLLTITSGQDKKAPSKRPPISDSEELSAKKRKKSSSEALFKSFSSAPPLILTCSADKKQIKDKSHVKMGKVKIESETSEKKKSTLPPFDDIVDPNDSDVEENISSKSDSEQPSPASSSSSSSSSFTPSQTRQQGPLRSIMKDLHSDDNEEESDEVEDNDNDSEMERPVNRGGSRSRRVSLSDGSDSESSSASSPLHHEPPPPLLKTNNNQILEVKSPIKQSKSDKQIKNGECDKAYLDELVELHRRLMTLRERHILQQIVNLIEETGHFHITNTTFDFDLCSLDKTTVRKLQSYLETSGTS
T cruzi repl: T. cruzi replication inhibition. T. cruzi beta-gal in NIH3T3, luminescence, 90 h. inhibition, % (no concentration beside the values). 300,000 compounds, 1.4% hits;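 active = mean inhibition across valid replicates above about 55%, limit read from the data; inconclusive = mean below that limit but half or more replicates reach it; inactive = mean below it, under half of replicates reach it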;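 note: signal also drops with host cell toxicity which is not excluded here; 0% = plate median of DMSO wells and 100% = zero luminescence signal; higher percent means less beta-gal luminescence so fewer parasites; stock transfer was 50 nL into about 50 µL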
Beta apoptosis: blocks beta cell apoptosis. INS-1E cytokine-induced death, ATP luminescence, 48 h; percent of positive-control rescue, neutral wells zero. protection from apoptosis, % (test concentration not listed). 300,000 compounds, 0.8% hits;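 active = all replicates at 75% or more, or half of them and the mean; inconclusive = half reach 75% but not the mean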;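 note: 0% = cytokine-treated negative control wells and 100% = positive control rescue; higher means more ATP so stronger rescue from cytokine killing; wells of about 40 µL received 100 nL stock; the first replicate is given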
Calb FLC: affects C. albicans growth with fluconazole | C. albicans CaCi-2 (fluconazole-resistant clinical isolate) + fluconazole, Alamar Blue growth, 48 h | growth inhibition, % (no concentration beside the values) | 300,000 compounds, 0.57% hits;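 active = most replicates above 75%; inconclusive = exactly half above 75%; inactive = most below 75%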;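 note: all wells also contain fluconazole at 8 µg/ml as a sub-toxic cotreatment; 0% = median of DMSO wells and 100% = median of geldanamycin control wells; wells of about 8 µL received 7.5 nL stock; the first replicate is given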
LANA-H2B inh: blocks KSHV LANA binding to histone H2A/H2B; inhibition, % (test concentration not listed); Q9QR71; cell-free LANA-H2A/H2B peptide, fluorescence polarization; 320,000 compounds, 0.6% hits; in the data active = inhibition mostly above about 10%, no sharp cut-off; inactive = mostly below about 6.7%;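 note: stock transfer was 7.5 nL into about 10 µL; 0% = median of vehicle wells and 100% = median of positive control wells; one replicate is shown; the record names a cut of 25% in any replicate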
Bfl-1 A1 inh: inhibitors of the anti-apoptotic protein A1, read as caspase activation; MEF A1-2A-BIM cells, Caspase-Glo 3/7 luminescence, 3 h; percent of clofoctol response, vehicle zero; caspase activation, % (no concentration beside the values); 330,000 compounds, 0.066% hits; AID 2462;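 active = over half of replicate activation scores above 10%, or exactly half above 10 with the replicate mean above 10; inconclusive = replicate mean below 10 yet half the replicates above 10; inactive = over half of replicates below 10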;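 note: wells of about 30 µL received 50 nL stock; many hits fall short of the cut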
Starred values were filed as active, the others as inactive; ? = inconclusive; . = no result given; & = joins results of further samples.

Screens in order: AF4-AF9 inh | Bfl-1 A1 inh | RanGTP-Impb inh | LANA-H2B inh | Calb FLC | Vif A3G | T cruzi repl | Beta apoptosis
1. O=C(NCCCN1CCN(c2cccc(Cl)c2)CC1)c1ccc(N2CCCC2=O)cc1
→ . | 0.2 | -1.9 | -2.0 | -1.4 | ? | 4.0 | 0.4
2. Cc1ccc(/C=C/S(=O)(=O)NCC(=O)OCC(=O)NCc2ccccc2)cc1
→ -5.6 | 1.1 | -2.3 | -2.2 | 0.6 | ? | -18.6 | .
3. Cc1ccc(/C=N/NC(=O)CCCOc2ccc(Cl)cc2Cl)cc1
→ . | 0.0 | -4.3 | 1.2 | -31.7 | -6.5% | -6.1 | -3.3
4. Cc1cc(C)n(-c2ccc(C(=O)OCC(=O)c3ccc(Br)s3)cc2)n1
→ . | 0.4 | 0.5 | -0.5 | 0.7 | -10.7% | -3.6 | -4.9
5. COc1ccc(C)cc1N/C(N)=N/c1nc(C)cc(C)n1
→ -2.7 | -0.1 | 4.1 | -4.2 | 3.5 | -1.4% | -15.5 | 13.1
6. CN(C)c1ccc(-c2nc3ccccc3c(=O)[nH]2)cc1
→ 1.0 | -12.4 | 1.5 | -5.7 | -1.2 | 30.1% | -8.2 | 9.1
7. O=C(CCn1c(=S)[nH]c2ccccc2c1=O)Nc1cccc(Cl)c1
→ -19.2 | -0.3 | -0.1 | 0.0 | -6.4 | . | 17.3 | 10.4
8. Cc1ccc(CNC(=O)c2nn(C)c3c2CS(=O)(=O)c2ccccc2-3)cc1
→ -6.0 | -0.1 | -1.7 | 1.9 | -6.8 | 21.3% | 10.8 | -4.3
9. Cc1nc(N2CCC(C)CC2)c2nnn(Cc3ccccc3)c2n1
→ . | 1.8 | 2.0 | 6.8 | -16.8 | . | 26.0 | 6.4
10. COc1ccc(O)c(C(=O)CC(=O)c2ccccc2)c1
→ . | 0.3 | 0.9 | -1.4 | 13.7 | 26.3% | -1.3 | 0.0
11. COc1ccc(C2=NOC3(CC(=O)N(c4ccc(F)cc4)C3=O)C2)cc1 (stereo not given)
→ 3.5 | -0.1 | 0.5 | 0.4 | -3.2 | 9.5% | -1.6 | -7.6
12. CCOc1ccccc1C(=O)N[C@H](C(=O)OCc1cc(=O)oc2cc(C)ccc12)C(C)C
→ 1.1 | -0.7 | -2.2 | -2.1 | 17.5 | . | 18.6 | -6.6
13. CC(=O)N1CCc2cc(S(=O)(=O)N3CC(C)CC(C)C3)ccc21 (stereo not given)
→ 0.3 | -0.5 | 2.0 | 3.2 | -4.1 | . | 14.2 | 2.0
14. N#Cc1nc(Cc2cccc3ccccc23)oc1NCc1ccco1
→ 10.6 | 0.5 | 0.9 | -3.9 | 24.8 | -11.1% | 20.6 | -12.5
15. CCN1CCN(C(=O)C2CCC(CNS(=O)(=O)c3ccc(NC(C)=O)cc3)CC2)CC1 (stereo not given)
→ 1.0 | -0.1 | 1.6 | 1.7 | -1.5 | . | -2.0 | -2.6
16. COCC1CCN(C(=O)c2cc(COc3ccc(OC)c4ccccc34)on2)C1 (stereo not given)
→ 1.4 | 3.0 | 1.6 | 1.1 | 10.2 | . | 11.1 | 32.1
17. Cc1ccccc1NC(=O)c1nn(C)c2c1CS(=O)(=O)c1ccccc1-2
→ -0.9 | -2.6 | -0.1 | 4.6 | 6.8 | 1.5% | 0.9 | -2.2
18. O=c1oc2ccccc2c(NC(c2ccccc2)c2ccccc2)c1[N+](=O)[O-]
→ . | -0.1 | ? | -1.6 | -1.6 | 9.1% | -4.4 | 15.8
19. CC(C)(C)[C@H]1C=C(C(N)=O)O[C@@H](OCc2ccc(CO)cc2)C1
→ -3.8&1.9 | 0.4 | -0.6 | -6.5 | 0.7 | 6.5% | -16.8 | -8.4
20. Cc1cc2cc(CNC(=O)CCC(=O)O)ccc2[nH]1
→ . | 0.6 | 2.2 | -1.3 | 5.4 | 7.5% | -6.7 | -20.4
21. CCOc1ccccc1/C=N/NC(=O)CNC(=O)COc1ccccc1
→ 1.1 | 1.3 | 2.1 | 7.7 | 3.2 | -3.8% | -6.4 | -0.6
22. CCOC(=O)/C(=C/c1ccc(Cl)cc1)NC(=O)c1ccco1
→ . | 0.0 | -2.6 | 1.4 | 9.2 | 0.1% | -12.7 | 2.2
23. Cc1ccc(/C=C/C(=O)NC(=S)N2CCN(C)CC2)cc1
→ 0.1 | -0.3 | -3.3 | -5.5 | 16.7 | -9.3% | 6.0 | -5.0
24. CSC[C@H](NC(=O)COc1cc2c(c3oc(=O)c(C)c(C)c13)CCC(C)(C)O2)C(=O)O
→ -2.1 | -0.9 | 6.6 | 0.5 | -0.1 | -2.6% | 4.2 | -5.9
25. CN(C)CC(=O)Nc1cc(C(F)(F)F)ccc1Cl
→ . | -0.4 | 0.9 | -8.9 | -7.4 | -3.1% | -4.7 | -2.3
26. COc1cccc(NC(=O)Nc2ccc3nsnc3c2)c1
→ 4.0 | -2.7 | 4.2 | -2.1 | 2.8 | 0.1% | 5.7 | .
27. O=C(CC1Oc2ccccc2NC1=O)NCc1ccccc1 (stereo not given)
→ -4.7 | -0.9 | 1.6 | 0.2 | -3.2 | -5.3% | -2.5 | .
28. COc1ccccc1CCNC(=O)c1ccc(C)o1
→ -36.8 | -0.2 | -0.6 | 0.9 | 19.2 | 1.2% | -0.2 | 1.9
29. CCOC(=O)C(=O)/C(=C\N(C)C)c1onc(-c2c(F)cccc2Cl)c1C(=O)OC
→ . | 0.1 | 0.1 | -3.2 | -12.4 | -4.0% | -13.9 | 0.6
30. CN(/C(=N\S(=O)(=O)c1ccccc1)c1ccccc1)c1ccc(O)cc1
→ . | 2.1 | 3.9 | 5.5 | -2.5 | 1.7% | -5.2 | 0.6
31. Cc1cc([N+](=O)[O-])nn1CCCC(=O)Nc1cc(Oc2ccc(F)cc2)cc([N+](=O)[O-])c1
→ . | 0.3 | -1.3 | -4.6 | -4.8 | 18.2% | 40.3 | 10.9
32. COc1ccc(-c2csc(NC(=S)NC(=O)c3cccs3)n2)cc1Br
→ -2.6 | -0.2 | 2.6 | -3.9 | 7.7 | -6.2% | 42.2 | 8.7
33. O=C(NCCC1=CCCCC1)C(=O)NCC(c1ccco1)N1CCN(c2ccccc2F)CC1 (stereo not given)
→ -1.7 | -0.2 | 1.9 | 1.5 | 0.1 | -1.3% | -21.5 | 18.8
34. COC(=O)c1ccc(NS(=O)(=O)NC(=O)c2cn(C)c3ccccc23)cc1
→ 0.3 | -2.5 | -0.6 | 5.7 | 4.2 | . | 0.3 | -4.3
35. c1ccc2c(N3CCCCCC3)nc(-c3ccncc3)nc2c1
→ . | 0.4 | 8.7 | -0.9 | -2.8 | 28.6% | 52.9 | -9.1
36. CSCC[C@H](NC(=O)C1CCN(S(=O)(=O)c2ccc(C)cc2C)CC1)c1nc2ccccc2[nH]1
→ 4.0 | -0.4 | . | 2.1 | . | . | . | -2.1
37. CN(C)S(=O)(=O)c1cccc(-c2nn(-c3ccccc3)cc2/C=C(\C#N)c2nc3ccccc3[nH]2)c1
→ . | 2.4 | 6.4 | -6.7 | -7.4 | . | 46.7 | 1.6
38. N#C/C=C(/c1ccc(F)cc1)N1CCOCC1
→ -1.4 | 0.0 | -2.7 | -3.1 | -5.3 | . | 3.0 | -6.4
39. COc1ccc(C(c2oc(CO)cc(=O)c2O)c2oc(CO)cc(=O)c2O)cc1OC
→ -3.5 | 0.0 | 0.1 | 0.5 | -14.2 | 15.1% | -4.0 | -2.4
40. O=C(COc1ccc(S(=O)(=O)N2CCOCC2)cc1)NCc1ccccc1
→ -1.2 | 0.2 | -2.0 | 2.9 | 1.9 | 2.6% | -17.4 | -7.7
41. CCOC(=O)c1nnc(-c2ccc(C)cc2)nc1Sc1cccc(Cl)c1
→ . | 1.4 | 4.0 | 0.8 | -0.9 | 3.8% | -12.8 | -6.2
42. Cc1ccc(NC(=O)CCS(=O)(=O)c2ccc3c(c2)NC(=O)C(C)S3)nc1 (stereo not given)
→ -1.0 | 0.3 | 0.9 | -2.1 | 5.7 | . | -3.0 | -8.7
43. CC(=O)OC[C@H]1O[C@@H](Sc2cccc3cccnc23)[C@H](OC(C)=O)[C@@H](OC(C)=O)[C@@H]1OC(C)=O
→ . | 0.0 | -0.5 | 0.9 | 1.8 | -5.2% | -7.0 | 2.5
44. Cc1ccc(C(=O)NCCCc2ccccc2)c(C)c1
→ -1.5 | 1.3 | -2.1 | -3.1 | -3.4 | -2.6% | 4.1 | 0.6
45. Cc1oc(-c2cccc(Cl)c2)nc1CN1CCC(C(=O)NCC2CCCO2)CC1 (stereo not given)
→ . | -0.5 | 2.2 | 1.4 | 16.0 | 0.9% | 21.7 | 1.1
46. CC(=O)Nc1ccc(S(=O)(=O)NNC(=O)CCc2ccccc2)cc1
→ -1.8 | -1.4 | -1.1 | -3.7 | -7.7 | . | -14.6 | -8.1
47. COC(=O)c1ccc(NC(=O)CN2CCN(c3ccccc3)CC2)cc1
→ . | -0.1 | -0.9 | -6.9 | 44.5 | 13.9% | -8.6 | 5.3
48. CN1CCN(C(=O)/C(=C/c2cccs2)NC(=O)c2ccco2)CC1
→ -1.4 | -0.1 | -1.4 | 5.6 | -4.7 | . | -7.8 | -3.4
49. O=C(CSc1n[nH]c(C2CCCC2)n1)NC1CCCC1
→ . | 0.2 | -3.5 | 1.0 | -3.8 | -5.7% | -2.4 | -3.4
50. CC1(C)Cc2c(sc3ncnc(N)c23)CO1
→ . | 0.2 | -0.7 | 10.1 | -1.6 | -4.2% | -1.6 | -2.7
51. C=CCNC1=C(Cl)C(=O)c2ccccc2C1=O
→ . | -1.7 | -5.5 | -3.7 | -18.4 | . | -12.9 | 97.4*
52. Cc1sc2ncnc(NCC(c3ccco3)N3CCCC3)c2c1C (stereo not given)
→ . | 0.2 | 3.8 | 1.0 | -8.7 | ? | 15.0 | 0.7
53. COc1cccc(-c2ccc(SCc3ccccn3)nn2)c1
→ 1.1 | -7.7 | 3.8 | -4.2 | -0.6 | . | -19.4 | 0.4
54. O=C(O)CCNC(=O)/C(=C\c1ccco1)NC(=O)c1ccco1
→ 0.3 | -0.7 | -0.6 | -4.9 | 7.7 | . | 2.5 | -6.9
55. O=C(NCc1ccc2c(c1)OCO2)c1cccs1
→ . | ? | 3.4 | -0.6 | -2.9 | 15.1% | -6.8 | 4.1
56. COc1ccc(-c2nnn(CC(=O)N(CCCN3CCOCC3)C(C(=O)NC3CCCC3)c3ccco3)n2)cc1 (stereo not given)
→ 1.2 | -0.3 | 0.3 | 1.4 | -1.9 | . | 8.7 | -1.5
57. COCC(C)NC(=O)CSc1nc2nn(-c3ccccc3)c(=O)c-2c2n1CCCCC2 (stereo not given)
→ 1.9 | 0.1 | 3.8 | 3.4 | 2.6 | . | 15.3 | -2.5
58. Cc1cccc(N(Cc2ccccc2)C(=O)c2ccc(CS(C)(=O)=O)cc2)c1
→ 0.3 | -0.1 | 4.8 | -6.0 | -6.3 | . | 7.0 | 5.2

Compound activity (PubChem BioAssay)
